High-throughput results as filed in PubChem BioAssay.
Six1-Eya2 blk: blocks human Six1 binding to Eya2. Q15475+O00167. AlphaScreen GST-Six1/His-Eya2 binding, biochemical; stronger effect = lower value; control for the full effect not named in the record. activity change, % (no concentration beside the values). 360,000 compounds, 0.56% hits; in the data active = activity change below about -65%; inconclusive = about -30% to -65%; inactive = above about -30%; also: % is scaled to controls: 0 for no effect and ±100 for the full control effect
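AlphaScreen with GST-Six1 and His-Eya2 (5X mix: 250 nM and 500 nM), glutathione donor and nickel acceptor beads; buffer 50 mM Tris pH 8.0, 300 mM NaCl, 1 mM TCEP; 1 h at 37 C in the dark.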
D2 agonist: activates the human D2 dopamine receptor; P14416; DiscoveRx PathHunter D2 beta-arrestin, luminescence, 90 min; 100% = 57 uM dopamine signal; AID 624465; activation, % (no concentration beside the values); 360,000 compounds, 0.084% hits; in the data active = activation above about 40%; inconclusive = about 15% to 40%; inactive = below about 15%; also: compound concentration not given in the record; the text of the record calls up to 30% inactive
Target sequence (P14416 whole entry, looked up): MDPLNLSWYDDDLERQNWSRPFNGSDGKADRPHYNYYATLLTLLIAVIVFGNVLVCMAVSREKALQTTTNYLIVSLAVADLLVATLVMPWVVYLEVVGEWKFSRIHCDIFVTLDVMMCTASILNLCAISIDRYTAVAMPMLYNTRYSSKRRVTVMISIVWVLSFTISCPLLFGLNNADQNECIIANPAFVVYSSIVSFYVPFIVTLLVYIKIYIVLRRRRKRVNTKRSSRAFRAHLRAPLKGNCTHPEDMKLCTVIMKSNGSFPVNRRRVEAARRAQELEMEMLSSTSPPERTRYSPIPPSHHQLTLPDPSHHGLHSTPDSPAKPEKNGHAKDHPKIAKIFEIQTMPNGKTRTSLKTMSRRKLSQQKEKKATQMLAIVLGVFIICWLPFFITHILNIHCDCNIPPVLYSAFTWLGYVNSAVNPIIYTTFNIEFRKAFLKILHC
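Agonist mode: compounds alone added to overnight-plated D2 PathHunter cells for 90 min at 37 C, with 57 uM final dopamine (EC100) defining full response. Beta-arrestin recruitment detected by chemiluminescent reagent, read after 1 h at ambient temperature.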
PINK1 modulator: PINK1 expression modulation. 410,000 compounds, 0.2% hits. Potency, µM (titrated, usually from 76.6 µM), for inactives: at the top dose activation (PINK1 increase), hits mostly activators. PINK1 immunofluorescence, high-content cytometry, 24 h; active = well fitted activation curve with a large enough effect; inconclusive = small, poorly fitted or top-dose-only effect; inactive = flat fitted curve, though single readings scatter; cell line not stated here;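 also: potency is read from the fitted curve at half-maximal effect; % of control where 0% means no effect; nearly all actives have a fitted effect of over 65% in size; a mitochondrial uncoupler was the plate control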
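Readout is PINK1 immunofluorescence, quantified alongside mitochondrial, cell and nuclear markers by laser-scanning microplate cytometry. Cells from a stable line were exposed to compound titrations (5 concentrations) for 24 hours, with CCCP controls.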
D2 potentiator: human D2 receptor positive allosteric modulation; P14416; DiscoveRx D2 beta-arrestin cells, luminescence, 90 min; 100% = 57 uM dopamine signal; potentiation, % (no concentration beside the values); 360,000 compounds, 0.23% hits; active = potentiation of 50% or more; inconclusive = 30% to 50%; inactive = 30% or less;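 also: compound concentration not given in the record; tested on top of an EC20 dose of dopamine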
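PathHunter D2 cells, attached overnight at 37 deg C, received compound in DMSO plus dopamine at EC20 (50 nM final) for 90 min at 37 deg C. Beta-arrestin recruitment was read as luminescence after 1 h with detection reagent at ambient temperature.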
TRPML1 agonist: human mucolipin-1 channel agonism. Q9GZU1. TRPML1-expressing cells, Ca2+ dye fluorescence, FDSS; host cell line not named in the record; reference of the full effect not given here. activation, % (no concentration beside the values). 410,000 compounds, 0.12% hits. AID 624414; in the data active = activation above about 50%; inconclusive = about 30% to 50%; inactive = below about 30%; also: 0% is about no effect; the text of the record puts the active cut at 80%
Target sequence (Q9GZU1 whole entry, looked up): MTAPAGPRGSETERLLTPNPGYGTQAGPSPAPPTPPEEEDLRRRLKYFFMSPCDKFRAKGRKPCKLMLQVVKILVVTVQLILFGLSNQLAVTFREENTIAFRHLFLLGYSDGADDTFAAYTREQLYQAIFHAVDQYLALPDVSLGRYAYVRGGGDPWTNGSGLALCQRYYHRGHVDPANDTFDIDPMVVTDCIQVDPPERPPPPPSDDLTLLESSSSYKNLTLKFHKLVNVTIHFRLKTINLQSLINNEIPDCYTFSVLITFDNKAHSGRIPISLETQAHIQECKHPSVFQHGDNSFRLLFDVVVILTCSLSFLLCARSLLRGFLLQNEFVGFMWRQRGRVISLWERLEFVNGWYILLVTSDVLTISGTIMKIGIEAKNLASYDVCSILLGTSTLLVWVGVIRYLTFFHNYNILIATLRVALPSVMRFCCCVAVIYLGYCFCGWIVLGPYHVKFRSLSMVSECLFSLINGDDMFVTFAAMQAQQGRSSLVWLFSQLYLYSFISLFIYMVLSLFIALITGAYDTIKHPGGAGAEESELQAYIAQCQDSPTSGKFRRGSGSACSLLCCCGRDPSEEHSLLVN
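Cells: TRPML1-DL, 1X Tet inducer, ~16 h at 37 degrees C/5% CO2. Dye: ABD Ca8 no-wash + quencher, 45-90 min RT. Read: 10 s baseline, compound add, 110 s agonist phase; 54-4 EC80 (4uM final), 110 s antagonist phase.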
CtBP-E1A blk: CtBP/E1A binding inhibition; AlphaScreen GST-E1A/His-CtBP binding, 1536-well; stronger effect = lower value; control for the full effect not named in the record; activity change, % (concentration not given with the values); 340,000 compounds, 0.49% hits; AID 651724; in the data active means activity change below about -65%; inconclusive means about -30% to -65%; inactive means above about -30%; also: % is scaled to controls: 0 for no effect and ±100 for the full control effect
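Homogeneous bead-based format: GST-tagged E1A captured on glutathione donor beads, His-tagged CtBP on nickel acceptor beads; compounds precede bead addition by 2 h at 37 °C.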
* marks the source's active call; other numbers are inactive results; ? = inconclusive; nt = not tested or not shown; & = joins results of further samples; [ ] = dose if it differs, or a comment.

SMILES	Six1-Eya2 blk	D2 agonist	PINK1 modulator	D2 potentiator	TRPML1 agonist	CtBP-E1A blk
O=c1c2[nH]c3ccccc3c2ncn1CCN1CCNCC1	-2	1.2	-2.1%	-7	-0.1	-1
CNc1cnc(-c2ccccc2OC)cn1	-4	-5.5	1.2%	2	-0.4	?
COc1ccc(OC)c(S(=O)(=O)NCc2cn3cccc(C)c3n2)c1	2	-4.4	nt	-6	0.2	1
CC(C)CNC(=O)C1CCN(c2ccc(S(=O)(=O)N3CCOCC3)cc2)CC1	6	-3.7	2.5%	-2	0.4	2
O=c1cc(-c2ccccc2)c2ccc(O)cc2o1	-9	0.7	-1.5%	11	2.4	0
Fc1ccccc1COc1cccc2cccnc12	5	-3.6	6.0%	-3	1.4	4
O=c1cc(-c2ccccc2Cl)oc2cc(O)cc(O)c12	-4	-1.1	0.4%	4	1.5	nt
COc1ccc(OCC(=O)OC2CCCN(C)C2)cc1 (stereo unspecified)	4	-2.5	0.0%	-1	4.3	4
O=C(Cc1nc2ccccc2[nH]1)c1cccc([N+](=O)[O-])c1	-9	-1.0	14µM*	-18	-0.5	-13
CC(C)(C)C(=O)/C=C1\NC(=O)CS1	-2	-3.0	0.8%	1	0.4	-1
CN(c1nc2ccccc2[nH]c1=O)C1CCCCC1	7	-4.2	5.0%	-7	1.5	-2
O=S(=O)(c1ccccc1)N1CCC2(CC1)OCCO2	7	-2.6	-0.1%	-6	-0.2	10

3 entries already listed, arranged by the value under PINK1 modulator, low to high:
| SMILES | Six1-Eya2 blk | D2 agonist | PINK1 modulator | D2 potentiator | CtBP-E1A blk |
| --- | --- | --- | --- | --- | --- |
| O=S(=O)(c1ccccc1)N1CCC2(CC1)OCCO2 | 7 | -2.6 | -0.1% | -6 | 10 |
| COc1ccc(OCC(=O)OC2CCCN(C)C2)cc1 (stereo unspecified) | 4 | -2.5 | 0.0% | -1 | 4 |
| CC(C)(C)C(=O)/C=C1\NC(=O)CS1 | -2 | -3.0 | 0.8% | 1 | -1 |

(continued)
SMILES	Six1-Eya2 blk	D2 agonist	PINK1 modulator	D2 potentiator	TRPML1 agonist	CtBP-E1A blk
CCc1nnc(NC(=O)CSc2n[nH]c(-c3ccccc3O)n2)s1	-1	-0.7	0.4%	-3	-0.6	-4
Cc1cc(-c2nnc(SCC(=O)Nc3cccc(Cl)c3)n2N)n[nH]1	-1	-1.3	0.7%	-7	-0.8	-1
N#CC1=C(N)N2C(=C(C#N)C13CCCCC3)SC1CCCCC12O (stereo unspecified)	-2	-2.2	-1.6%	-4	0.0	-11
CC1=NN(C)C(=O)C1Cc1c(F)cccc1Cl (stereo unspecified)	4	-0.4	-1.1%	-5	1.3	7
Cc1cc(C(=O)CSc2nnnn2C)c(C)n1CCc1ccc(F)cc1	0	-2.2	8.6%	2	-0.8	5
CSc1c2c(nc3ncnn13)CCC2	-4	-2.2	-1.0%	-6	0.0	1
Cc1c(Cl)cnc(NC(=O)COC(=O)CNC(=O)c2ccccc2)c1Cl	0	-1.1	1.8%	0	-0.5	nt
CC/C(=N\NC(=S)Nc1cccc(C)c1)c1ccccc1	-17	-3.4	1.5%	-6	2.4	-29
CCOc1cc(/C=N/NC(=O)c2cc(-c3cccc(OC)c3)nc3ccccc23)ccc1O	?	12	8.6%	2	3.5	?
COc1ccc(-c2csc(Nc3ccc(C)cn3)n2)cc1	-4	1.5	4.5%	-2	-0.4	-6
CCOC(=O)c1[nH]c2ccc(Cl)cc2c1NC(=O)c1nonc1C	-1	-5.1	0.1%	-6	-0.4	2
CC(=O)NC(CC(=O)NCCOc1ccccc1F)c1ccccc1 (stereo unspecified)	-3	-1.4	0.8%	-6	0.2	2
COc1ccc(N2CC(C(=O)Nc3c4c(nn3-c3ccccc3)CS(=O)(=O)C4)CC2=O)cc1 (stereo unspecified)	6	-2.5	0.0%	13	0.5	3
COCCn1c(SCC(=O)N2CCCCCC2)nc2c([nH]c3ccccc32)c1=O	2	-0.5	16%	-1	1.2	1
CCOC(=O)c1ccccc1NC(=O)COc1cc(=O)n(CC)c2ccccc12	1	-1.5	1.8%&1.5%	-8	-0.6&3.3	2
CC(=O)N1c2c(cc(Br)cc2S(=O)(=O)N2CCCCC2)CC1C (stereo unspecified)	-5	-1.9	1.2%	-7	0.8	-1
COc1ccc(C(=O)NCC(=O)OCC(=O)NCCC2=CCCCC2)cc1	7	-4.6	-1.7%	-6	3.1	3
O=C(CSc1nc(-c2ccccc2)ns1)N1CCOCC1	7	-3.4	0.4%	-5	-0.3	-6
Cc1onc(C(=O)NCc2ccccn2)c1[N+](=O)[O-]	2	-3.7	0.3%	-8	1.8	-16
CCCCn1c(C)nc2c(=O)n(C)c(=O)[nH]c21	-2	-1.9	21%[38.3 µM]	-8	-0.5	5
O=C(c1ccccc1)N1CCN=C1SCc1ccc([N+](=O)[O-])cc1	0	-0.3	-2.1%	-15	-0.1	1
COC(=O)c1cc(Cl)c(NC(=O)/C=C/c2ccc(OC)cc2)cc1OC	2	-0.3	5.3%	-17	-0.7	0
COc1cc(OC)cc(C(=O)NCc2cccnc2)c1	6	0.0	-1.9%	-39	0.0	9
CCCCNc1c(-c2cccc(-c3ccc(OC)cc3)c2)nc2cc(C)ccn12	-18	12	?	-20	-0.4	nt
COc1ccc(-c2ccc3nnc(SCC(=O)NCC4CCCO4)n3n2)cc1 (stereo unspecified)	1	-0.1	0.3%	-11	1.4	-2
C=CCN1C(=NC(=O)COc2ccc(Cl)cc2)SC2CS(=O)(=O)CC21 (stereo unspecified)	0	-1.2	-0.3%	-1	0.1	0
CCNC(=O)N1CCNC(=O)C1CC(=O)Nc1ccc(C(=O)OCC)cc1 (stereo unspecified)	3	0.4	0.0%	-13	0.5	-3
CCN(CC)S(=O)(=O)c1cc(NC(=O)Cc2n[nH]c(=O)c3ccccc23)ccc1C	1	-2.9	0.2%	-9	1.5	1
CC1=C(C(=O)N(C(C)C)C(C)C)CC(CC(=O)NCc2ccco2)C(=O)N1Cc1ccc(F)cc1 (stereo unspecified)	-7	-5.2	0.7%	-4	-0.1	2
Cc1cccc(N2CCN(S(=O)(=O)c3cn(C)cn3)CC2)c1C	6	0.4	0.5%	-1	-0.5	nt
C=CCN1C=C/C(=C\C=C(C#N)C#N)c2ccccc21	?	-9.6	1.0%	-24	0.6	-79*
O=C(Nc1oc2ccc(Cl)cc2c(=O)c1-c1ccc(F)cc1)c1ccco1	-2	2.6	0.4%	-7	0.8	1
CCC(CO)NCc1sccc1C (stereo unspecified)	-1	6.2	-1.4%	-8	0.5	nt
Cc1cc[n+](Cc2ccccc2)c(N)c1	3	-3.8	-0.2%	-12	-0.9	6
CCN1CCN(c2nc(Nc3ccc(C)c(C)c3)nc(N)c2[N+](=O)[O-])CC1	?	-5.9	2.8%	-15	-0.4	?
Cc1ccccc1C(=O)NC(CC(C)C)C(=O)Nc1ccc(S(N)(=O)=O)cc1 (stereo unspecified)	-2	0.3	0.1%	-5	0.4	4

Random excerpt: 3 entries already listed
SMILES	Six1-Eya2 blk	D2 agonist	PINK1 modulator	D2 potentiator	TRPML1 agonist	CtBP-E1A blk
O=C(c1ccccc1)N1CCN=C1SCc1ccc([N+](=O)[O-])cc1	0	-0.3	-2.1%	-15	-0.1	1
COc1cc(OC)cc(C(=O)NCc2cccnc2)c1	6	0.0	-1.9%	-39	0.0	9
O=c1cc(-c2ccccc2Cl)oc2cc(O)cc(O)c12	-4	-1.1	0.4%	4	1.5	nt

More compounds:
SMILES	Six1-Eya2 blk	D2 agonist	PINK1 modulator	D2 potentiator	TRPML1 agonist	CtBP-E1A blk
NC(=O)Cn1nc([N+](=O)[O-])nc1Oc1ccccc1F	3	-1.8	1.1%	6	0.4	1
Cc1cc(OCc2ccc(C(=O)Nc3ccc(C(=O)O)cc3)o2)ccc1Cl	-9	0.0	3.5%	-8	0.0	8
O=S(=O)(c1cccs1)N1CN(Cc2ccc(F)cc2)c2nc3ccccc3nc21	-12	-2.6	4.1%	-12	1.8	-7
COC(=O)c1ccc(CNC(=O)c2ccc(S(=O)(=O)N3CCCCCC3)cc2)cc1	-3	-3.6	9.8%	-5	-0.5	4
CC1(C)CC(NC(=O)C2CCN(S(=O)(=O)c3ccc(F)cc3)CC2)CC(C)(C)N1	1	1.3	0.4%	-3	-0.6	1
O=C(OCC(=O)N1CCN(C(=O)c2ccco2)CC1)c1cccc(S(=O)(=O)N2CCc3ccccc32)c1	3	-1.1	2.2%	1	-0.1	-5
O=C(NCCCOC(=O)c1ccccc1)c1ccccc1	0	-0.5	2.0%	-8	2.4	8
COc1ccc2[nH]cc(S(=O)(=O)c3ccc(C(C)C)cc3)c(=O)c2c1	8	8.5	0.9%	-7	1.3	8
O=C(CSc1nnc(-c2cnccn2)n1Cc1ccco1)c1ccc2ccccc2c1	-12	-3.1	-0.1%[38.3 µM]	-7	1.0	-5
CC1CCc2c(sc(Nc3nc4c(F)cccc4s3)c2C(N)=O)C1 (stereo unspecified)	1	9.9	6.6%	19	1.8	7
COc1ccc(Cl)cc1NC(=O)CN(C)CC(=O)N1CC(=O)Nc2ccccc21	0	2.8	1.5%	-2	-0.4	4
CCN(CC)CCN(C)C(c1ccnc2ccccc12)c1nnnn1-c1ccc2c(c1)OCCO2 (stereo unspecified)	1	nt	-1.0%	nt	-0.3	-10
CC1(Oc2ccccc2-c2ccn[nH]2)CCN(Cc2ccc(OC(F)(F)F)cc2)C1 (stereo unspecified)	-11	4.8	?	-17	1.7	-1
O=C(Nc1nnc(C2CC2)s1)C1CCCO1 (stereo unspecified)	2	-4.8	0.6%	2	-0.9	5
CCOc1ccc2c(c1)nc(NCCCO)n2Cc1ccccc1	-5	-0.5	1.6%	-3	-0.1	-2
O=[N+]([O-])c1cc(C(F)(F)F)cc([N+](=O)[O-])c1NCCCNc1ccc([N+](=O)[O-])c2cccnc12	-29	8.2	-2.5%	11	2.5	-28
COc1cc(NC(=O)CCN2CCN(CCO)CC2)cc(OC)c1	-3	-1.5	-0.2%&2.3%	-11	0.4&-0.3	1
NS(=O)(=O)c1ccc(NC(=O)COC(=O)C2CC(=O)N(Cc3ccccc3)C2)cc1 (stereo unspecified)	1	3.3	2.0%	-1	0.1	10
CCc1ccc(NS(=O)(=O)c2cc3[nH]c(=O)c(=O)[nH]c3cc2C)cc1	4	1.9	4.1%	3	-0.9	nt
O=C(Cn1c(=O)c2sccc2n(Cc2cccc([N+](=O)[O-])c2)c1=O)NCCc1ccccc1	-21	-5.0	3.9%	-15	0.2	0
Nc1nc(CSCc2ccccc2)nc(N2CCOCC2)n1	-3	-2.2	-1.2%	12	0.5	1
COc1ccc(Cn2cc(CN3CCS(=O)(=O)N(Cc4ccc(-c5cccc(Cl)c5)cc4)C(C)C3=O)nn2)cc1 (stereo unspecified)	-6	-1.0	-0.3%	-9	-0.1	0
CCN(CC(=O)NCc1ccccc1Cl)CC(=O)Nc1c(F)cccc1F	-2	-6.9	0.1%	-4	0.8	nt
O=S1(=O)CCN(Cc2cccc(C(F)(F)F)c2)CC1	-2	0.5	-0.6%	-4	-0.3	-4
CCOC(=O)c1c(C)nc2sc(C(=O)Nc3ccc(C(C)=O)cc3)c(N)c2c1-c1ccc(OC)cc1	26	1.9	1.9%	?	4.0	33
COc1ccc(C(=O)CSc2cc(C)nc3nc(C)nn23)cc1OC	0	-1.1	nt	6	0.5	7
COc1ccc(S(=O)(=O)n2nc(C)cc2C)cc1OC	3	-0.1	0.4%	4	0.0	3
